V. cholerae motility = Vibrio cholerae motility inhibitors, OD read-out (AID 588778). Vibrio cholerae motility, OD read-out; higher % means a stronger effect; test concentration not given here; primary cut-off and reference of the scale not given here; strong numbers were not always called active. one-dose inhibition, %; IC50 in µg/mL for titrated hits. 10,000 tested, under 10 active; in the data active = confirmed in a dose series; inconclusive = primary hit not retested
V. cholerae motility viability = recorded beside V. cholerae motility, whose call it bears; inhibition, %; measured here: bacterial viability at 10 ug/mL;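 higher means fewer living bacteria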
Starred values were filed as active, the others as inactive; ? = inconclusive; . = not tested or not shown. The list is partial; count on the stated rates, not on these rows.

SMILES | V. cholerae motility | V. cholerae motility viability
Cc1ccc(NC(=O)C(=O)NC(C)C2COc3ccccc3O2)cc1 (stereo unspecified) | -1% | -6
CC(=O)c1ccc(NC(=O)CN2C(=O)C3C4c5ccccc5C(c5ccccc54)C3C2=O)cc1 (stereo unspecified) | 11% | 2
COc1nc(-c2ccccc2)cc(C(F)(F)F)n1 | -4% | -4
Cc1ccc(F)c(NC(=O)CN2C(=O)CSc3ccccc32)c1 | 16% | 14
COC(=O)c1cc(NC(=S)N2CCN(c3ccccn3)CC2)cc(C(=O)OC)c1 | 18% | 5
CC1CC(C)CN(CCOc2ccccc2I)C1 (stereo unspecified) | 0% | 8
Cc1c(C)n(C(=O)CSc2nc3ccccc3s2)c2ccccc12 | -6% | 3
O=C(NCc1cccnc1)C(Cl)(Cl)Cl | 1% | 1
O=C(O)CCCC(=O)NCc1ccc(Cl)c(Cl)c1 | -6% | -3
Clc1ccc(-c2nc(C3CCCCC3)no2)cc1 | 14% | 1
CC1(C)CC2CC(C)(CN2C(=S)Nc2ccc3nsnc3c2)C1 (stereo unspecified) | 12% | -3
CCC(=O)N1CCN(c2ccccc2NC(=S)NC(=O)c2cc3ccccc3cc2OC)CC1 | -10% | -4
Cc1cc(=O)oc2c(I)c(OCC(=O)N3CCc4ccccc43)ccc12 | 1% | -9
O=c1ccn(Cc2ccccc2)c(=O)[nH]1 | 1% | 4
CN(c1ccc(C(=O)NCCSCc2c(F)cccc2Cl)cc1)S(C)(=O)=O | 13% | -3
Cc1ccc(C(C)C)c(OCc2ccc(C(=O)Nc3ccc(S(N)(=O)=O)cc3C)o2)c1 | 12% | 10
O=C(Nc1ccc2c(c1)OCO2)c1ccc(Cl)s1 | 3% | -3
O=C(Nc1scc(-c2ccccc2)c1C(=O)O)c1ccccc1I | 24% | 3
CN(C)c1cccc(C(=O)NNC(=S)Nc2ccccc2C(F)(F)F)c1 | 10% | -1
O=C(COc1ccccc1Cl)Nc1cccc(-c2nc3ccccc3[nH]2)c1 | -8% | -8
NS(=O)(=O)c1ccc(Cc2ccc([N+](=O)[O-])cc2)cc1 | 13% | 7
O=S(=O)(c1ccc(Cl)cc1)N1CCN(c2nnc(-c3ccccc3)c3ccccc23)CC1 | 1% | 14
CC(CNCC1CCCO1)COc1ccccc1F (stereo unspecified) | 6% | -3
O=C(Nc1nnc(SCc2ccccc2)s1)C(c1ccccc1)N1CCOCC1 (stereo unspecified) | 10% | -3
Cc1cccc(C)c1NC(=O)CC(C(=O)O)N(C)C (stereo unspecified) | 1% | -4
O=C1Nc2ccc(F)cc2C1(c1c[nH]c2ccccc12)c1c[nH]c2ccccc12 | 35% | 9
N#Cc1ccccc1NC(=O)C1CC(=O)N(c2ccc3c4c(cccc24)CC3)C1 (stereo unspecified) | 6% | -2
CC(=O)Cc1nsc(NC(=O)c2c(-c3ccccc3Cl)noc2C)n1 | -9% | -2
Cn1c(SCC(=O)NCC2CCCO2)nnc1-c1ccc(NC(=O)c2ccccc2Cl)cc1 (stereo unspecified) | 0% | -3
COc1ccc(C(C)N(C)CCC(=O)O)cc1OC (stereo unspecified) | 6% | -5
COC(=O)Cc1ccc(NC(=O)COc2ccc(C)c(C)c2)cc1 | 0% | -7
Nc1ncnc2nc(SCc3nc4ccc(I)cc4c(=O)n3-c3ccccc3)[nH]c12 | 5% | -7
N#Cc1cc(Oc2ccc(OCc3ccccc3)cc2)c([N+](=O)[O-])cc1C#N | 7% | 2
COc1ccc(S(=O)(=O)Nc2nncs2)cc1 | -6% | -7
O=C(Nc1ccc(C(=O)OC2CCCCC2)cc1)c1cncc(Br)c1 | 1% | -2
Cc1nc(C)n(C(=O)N(c2ccccc2)c2ccccc2)n1 | -4% | -3

For convenience, some entries already given.
SMILES | V. cholerae motility | V. cholerae motility viability
O=C(Nc1scc(-c2ccccc2)c1C(=O)O)c1ccccc1I | 24% | 3
CN(C)c1cccc(C(=O)NNC(=S)Nc2ccccc2C(F)(F)F)c1 | 10% | -1
O=C(COc1ccccc1Cl)Nc1cccc(-c2nc3ccccc3[nH]2)c1 | -8% | -8
NS(=O)(=O)c1ccc(Cc2ccc([N+](=O)[O-])cc2)cc1 | 13% | 7
O=S(=O)(c1ccc(Cl)cc1)N1CCN(c2nnc(-c3ccccc3)c3ccccc23)CC1 | 1% | 14
CC(CNCC1CCCO1)COc1ccccc1F (stereo unspecified) | 6% | -3
O=C(Nc1nnc(SCc2ccccc2)s1)C(c1ccccc1)N1CCOCC1 (stereo unspecified) | 10% | -3
Cc1cccc(C)c1NC(=O)CC(C(=O)O)N(C)C (stereo unspecified) | 1% | -4
O=C1Nc2ccc(F)cc2C1(c1c[nH]c2ccccc12)c1c[nH]c2ccccc12 | 35% | 9
N#Cc1ccccc1NC(=O)C1CC(=O)N(c2ccc3c4c(cccc24)CC3)C1 (stereo unspecified) | 6% | -2
CC(=O)Cc1nsc(NC(=O)c2c(-c3ccccc3Cl)noc2C)n1 | -9% | -2
Cn1c(SCC(=O)NCC2CCCO2)nnc1-c1ccc(NC(=O)c2ccccc2Cl)cc1 (stereo unspecified) | 0% | -3
COc1ccc(C(C)N(C)CCC(=O)O)cc1OC (stereo unspecified) | 6% | -5
COC(=O)Cc1ccc(NC(=O)COc2ccc(C)c(C)c2)cc1 | 0% | -7
Nc1ncnc2nc(SCc3nc4ccc(I)cc4c(=O)n3-c3ccccc3)[nH]c12 | 5% | -7
N#Cc1cc(Oc2ccc(OCc3ccccc3)cc2)c([N+](=O)[O-])cc1C#N | 7% | 2
COc1ccc(S(=O)(=O)Nc2nncs2)cc1 | -6% | -7
O=C(Nc1ccc(C(=O)OC2CCCCC2)cc1)c1cncc(Br)c1 | 1% | -2
Cc1nc(C)n(C(=O)N(c2ccccc2)c2ccccc2)n1 | -4% | -3

Next section
SMILES | V. cholerae motility | V. cholerae motility viability
CCOC(=O)c1cc(-c2ccccc2)sc1NC(=S)NCCCn1cc(Br)cn1 | -24% | -9
COC(=O)C(NC(=O)c1ccc(Cl)cc1)C(F)(F)F (stereo unspecified) | 0% | 11
COc1ccc(S(=O)(=O)Nc2ccc3[nH]c(=O)[nH]c3c2)cc1OC | -4% | 5
COC(=O)C(C(=O)Nc1ncccn1)C1CCCCCC1 (stereo unspecified) | -1% | -3
CCC(=O)Nc1nonc1-c1nc2ccccc2n1Cc1cc(OC)ccc1C | -2% | -1
O=C1c2c(Cl)c(Cl)c(Cl)c(Cl)c2C(=O)N1c1ncn[nH]1 | -15% | -5
COC(=O)c1ccc(-c2ccc(-c3nc4ccccc4c(=O)[nH]3)o2)cc1 | 29% | 4
O=[N+]([O-])c1cc(-c2nnc(-c3ccccc3)o2)ccc1-n1c(-c2ccccc2)nnc1-c1ccccc1 | 1% | -6
O=c1c2cc(Cl)cc(Cl)c2oc2nc3n(c(=O)c12)CCCS3 | -17% | -3
CN1C(=O)C(CC(=O)Nc2ccc(Cl)cc2)N(Cc2ccco2)C1=S (stereo unspecified) | 6% | 4
CNC(=S)C1COc2ccccc2O1 (stereo unspecified) | -9% | -2
COc1cc(-c2nnc3ccc(C(F)(F)F)cn23)ccc1OCc1ccccc1 | 42% | 23
CCCOc1ccc2ccccc2c1CNc1ccc(F)cc1 | -11% | -6
Cc1ccccc1OCCCCn1c(CCCNC(=O)C(C)(C)C)nc2ccccc21 | 16% | 7
CCOc1ccc2nc(SC(CC)C(=O)Nc3cc(C)on3)sc2c1 (stereo unspecified) | -4% | -5
Cc1ccc2c(c1)sc1nc(-c3ccccc3)cn12 | 2% | -3
Fc1ccc(NC2CCN(C(=S)NCc3cccs3)CC2)cc1 | 7% | -2
COC(=O)CNC(=S)NC(=O)c1ccc(C(C)(C)C)cc1 | 7% | -3
CCOC(=O)CCCCC(=O)c1[nH]c(=O)[nH]c1Cn1cnc2ccccc21 | -4% | -1
COC(=O)CN(c1cc(Cl)ccc1OC)S(=O)(=O)c1ccccc1 | 9% | 6
OCCN1CCN(CC#CCn2c3ccccc3c3ccccc32)CC1 | -8% | -10
C=CCn1c(Cc2ccc(OCC)cc2)nnc1SCC(N)=O | -2% | -12
Cc1cc2ncn(C(=O)C(Cl)Cl)c2cc1C | 13% | -2
CCOc1ccc(CC(C(N)=O)C(N)=O)cc1 | -9% | -2
Nc1nnc(SCc2ccc(F)c3ccccc23)s1 | -13% | -2
Nc1c(C(=O)c2ccccc2)sc2sc(C(=O)c3ccccc3)c(N)c12 | -23% | -6
CCOc1cccc(N2CCN(CCNC(=S)Nc3ccc(C)cc3)CC2)c1C | -5% | 3
Cc1cc(C(F)(F)Cl)n2nc(-c3ccccc3)cc2n1 | -17% | -12
CCOc1cc(CNCCO)cc(Cl)c1OCc1cccs1 | 31% | 8
Cc1cc(C)nc(SCC(=O)Nc2ncc(Cc3cccc(C(F)(F)F)c3)s2)n1 | 19% | 18
Cc1cccc(NC(=S)NC2CCCC2)n1 | ? | .
COc1cc(C(=O)Nc2ccc(F)cc2)c(Br)c(OC)c1OC | -8% | -3
C=CCN1C(=O)NC2(CCCCC2)C1=O | 6% | -1
COc1ccc(Oc2ccc(-n3c(C)cc(C(=S)N4CCOCC4)c3C)cc2)cc1 | -2% | -4
CCOP(=S)(/C(C#N)=C(\O)Cc1ccccc1)c1ccccc1 (stereo unspecified) | 2% | -2
CC(NC(=S)NNC(=O)c1cccc(N(C)C)c1)c1ccccc1 (stereo unspecified) | 69% | 16
Cc1cc(NS(=O)(=O)c2ccc(NC(=O)c3ccoc3C)cc2)no1 | -3% | -2
O=C(O)C1CCCN1Cc1c[nH]c2ccccc12 (stereo unspecified) | -3% | -10
COc1ccc2[nH]c(=O)c(-c3ccccc3)c(O)c2c1 | 14% | -2
O=C(O)CSc1ccc(Cc2ccc(SCC(=O)O)cc2)cc1 | 6% | 1
O=C(CC1Nc2ccccc2NC1=O)Nc1ccc(SC(F)F)cc1 (stereo unspecified) | 4% | 3
C(=N\c1nc(-c2ccccc2)cs1)/Nc1nc(-c2ccccc2)cs1 | 7% | 0
COc1ccc(Cc2nc(C)c(CC(N)=O)c(=O)[nH]2)cc1 | -7% | -3
Cc1cc(C)n(C(=O)c2cc(C)on2)n1 | 32% | 11
O=c1c(Cl)c(Cl)cnn1Cc1ccccc1Cl | -10% | 6
Fc1ccc(NC(=S)NNC(=S)NCc2ccc(Cl)cc2)c(F)c1 | 21% | 10
O=C(OCc1ccc2c(c1)OCO2)c1ccc(F)cc1 | 16% | 24
Cc1cc(NC(=O)CCS(=O)(=O)Cc2ccccc2)no1 | 14% | 2
COc1ccc(-c2nc(-n3c(C)c(C(C)=O)c(C(C)=O)c3C)sc2C)cc1OC | 9% | 29
O=c1cc(-c2ccc3c(c2)OCO3)[nH][nH]1 | 7% | 2
O=Cc1ccccc1Oc1ccccc1[N+](=O)[O-] | 12% | 2
CC(=NCc1ccccc1)c1c(O)[nH]c2ccccc12 | 2% | 8
O=C(NC(=S)Nc1c(Cl)cc(Cl)cc1Cl)c1ccccc1F | -6% | -4
COC(=O)/C=C1\SC(=Nc2ccccc2OC)NC1=O | 1% | -1
O=C(NC1CCCCC1)NC1CCCCC1NC(=O)NC1CCCCC1 (stereo unspecified) | 11% | 23
CCOC(=O)c1sc2ncn(/N=C/c3ccccc3OC(F)F)c(=O)c2c1C | 0% | -3
O=C(Nc1ccc([N+](=O)[O-])cn1)C1CCCCC1 | 3% | 18
O=C(NCCN1CCCC1)c1cccc(Cl)c1 | 0% | -4
CC(=O)CCc1oc2ccc(C)cc2c1-c1ccc(C)o1 | -22% | -8
CC1(C)CC(=O)CC(C)(C)N1OC(=O)c1ccccc1 | 2% | 0

(next part)
SMILES | V. cholerae motility | V. cholerae motility viability
CSc1ccc(Cl)c(C(=O)Nc2nc(C)cs2)c1 | 2% | 1
O=C(Cc1cccs1)N1CCN(C(c2ccccc2)c2ccccc2)CC1 | 7% | 1
O=C(COc1ccc(NC(=O)c2ccc(Cl)c(Cl)c2)cc1)c1ccc(F)cc1 | -9% | -4
S=C(NCc1cccnc1)NC12CC3CC(CC(C3)C1)C2 | -9% | -5
C=CCN(CC=C)C(=O)Nc1cc(Cl)ccc1OC | 20% | 6
O=C(O)C1CC(=O)N(c2ccccc2O)C1 (stereo unspecified) | 37% | 20
COc1ccccc1N1CCN(c2nc(-c3ccccc3O)nc3ccccc23)CC1 | 0% | -8
O=S(=O)(c1cc(-c2nc3ccccc3s2)ccc1Cl)N1CCCC1 | -10% | -4
Cc1cc(-c2ccccc2)nc(Sc2ccc(C=O)o2)n1 | 0% | -4
CC1=Nc2ccccc2NC(=O)C1Sc1nc2ccccc2s1 (stereo unspecified) | -6% | -2
Cc1nnc(SCC2=NN(c3nc4ccccc4[nH]3)C(=O)C2)s1 | -17% | -6
COc1ccc(C(=O)COC(=O)CCC(=O)c2ccc(C)cc2)cc1Br | 4% | -9
COc1ccc(C(=O)C(CN2CCCCC2)c2ccccc2)cc1 (stereo unspecified) | 25% | 11
O=C(CSCc1nc2ccccc2[nH]1)Nc1cccc(C(F)(F)F)c1 | 22% | 36
COC(=O)Nc1ccc(NC(=O)C23CC4CC(CC(C4)C2)C3)cc1 | -3% | 2
CC(C)(C)NCCOCCOc1ccc(Cl)cc1C(C)(C)C | -9% | -8
COc1ccc(C)cc1NC(=S)NNC(=O)c1c(Br)cnn1C | -8% | 5
Cc1cc(C)n(S(=O)(=O)/C=C/c2ccccc2)n1 | 5% | 3
O=C(CNS(=O)(=O)c1cc(Cl)ccc1Cl)Nc1ccc2c(c1)OCCO2 | 7% | 2
C=CCOc1ccc(NC(=O)C(=O)NCc2cccnc2)cc1 | -17% | -5
Cc1cc(Cl)c(S(N)(=O)=O)cc1OCC(=O)NC1CCCCC1 | 0% | -9
O=C(O)Cn1cc(-c2ccccc2)nn1 | 2% | -1
CCOC(=O)C(C(=O)OCC)C(Nc1cccc(C)c1)c1ccccc1 (stereo unspecified) | 32% | 3
